Source: PubChem (National Center for Advancing Translational Sciences (NCATS))
SARS PLP yeast: SARS-CoV PLP inhibition in yeast; Potency, µM (highest dose often 32.9 µM), for the others: top-dose activity, positive = growth rescue; hit rate 0.19% among 330,000; S. cerevisiae expressing SARS-CoV PLpro, growth rescue; control for the full effect not named in the record; AID 485353; active means well fitted rising curve with a large enough effect; inconclusive means small, poorly fitted or top-dose-only effect; inactive means no such curve, though single readings can be large or run the other way; also: 0% is about no effect; nearly all actives have a fitted effect of over 55% in size; growth read by luminescence after 48 h
RE007 growth inh: less growth of the S. pombe RE007 Vpr strain; hit rate 0.21% among 360,000; Potency, µM (highest dose often 92.2 µM), for the others: top-dose activity change, negative = less growth; S. pombe RE007 Vpr strain, BacTiter-Glo ATP luminescence, 24 h; control for the full effect not named in the record; active = well fitted falling curve with a large enough effect; inconclusive = small, poorly fitted or top-dose-only effect; inactive = no such curve, though single readings can be large or run the other way;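 also: % is scaled to controls: 0 for no effect and ±100 for the full control effect; nearly all actives have a fitted effect of over 50% in size; the assay follows cell death caused by Vpr and the record does not say whether a fall means rescue or toxicity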
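Fission yeast RE007 carrying one integrated HIV-1 vpr copy, seeded at OD 0.01 in PMG+AL medium with 23 nL pinned compound. Grown 24 h at 30 degrees; viability read by BacTiter-Glo luminescence after 5 min.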
StopGo reporter: FMDV 2A StopGo reporter, luciferase signal | human cells with a luciferase reporter of 2A StopGo recoding; control for the full effect not named in the record | Potency, µM (top dose mostly 57.9 µM), without a hit: top-dose signal change, negative = less light | hit rate 1.2% among 410,000; active = well fitted falling curve with a large enough effect; inconclusive = small, poorly fitted or top-dose-only effect; inactive = no such curve, though single readings can be large or run the other way; tested in HEK293T cells; also: % is scaled to controls: 0 for no effect and ±100 for the full control effect; nearly all actives have a fitted effect of over 45% in size; luciferase light after 4 h
* marks the source's active call; other numbers are inactive results; ? = inconclusive; [ ] = another dose, or the depositor's remark. Potency is read from the fitted curve at half-maximal effect.

Sample of the layout:
SMILES	SARS PLP yeast	RE007 growth inh	StopGo reporter
O=C1c2ccccc2C(=O)N1CCCc1cn(C[C@H]2CC[C@H](Cn3cc(CCCN4C(=O)c5ccccc5C4=O)nn3)O2)nn1	4.2%	9.2%	-23.6%
CSc1nc(N)nc2c1ncn2CC(=O)NCC(c1ccccc1)c1ccccc1	0.7%	1.6%	?
CCC(C)Sc1nc2c(c(=O)[nH]1)C(c1cccs1)C1=C(CCCC1=O)N2 (stereo not drawn)	0.0%	7.3%	-28.0%
COc1ccc2c(c1)[C@H]1[C@H](CO2)[C@H](c2ccccc2)[C@]2(C)C(=O)Nc3ccccc3C(=O)N12	4.0%	7.7%	?
O=C(COC(=O)c1ccc(Br)cc1)NC(=O)NCc1ccccc1	-14.3%	5.6%	-8.5%
Cc1c(C#N)c(NC(=O)CCl)n(Cc2ccc(F)cc2)c1C	1.6%	-4.5%	12.6µM*

The whole of this part (from the top)
SMILES	SARS PLP yeast	RE007 growth inh	StopGo reporter
O=C1c2ccccc2C(=O)N1CCCc1cn(C[C@H]2CC[C@H](Cn3cc(CCCN4C(=O)c5ccccc5C4=O)nn3)O2)nn1	4.2%	9.2%	-23.6%
CSc1nc(N)nc2c1ncn2CC(=O)NCC(c1ccccc1)c1ccccc1	0.7%	1.6%	?
CCC(C)Sc1nc2c(c(=O)[nH]1)C(c1cccs1)C1=C(CCCC1=O)N2 (stereo not drawn)	0.0%	7.3%	-28.0%
COc1ccc2c(c1)[C@H]1[C@H](CO2)[C@H](c2ccccc2)[C@]2(C)C(=O)Nc3ccccc3C(=O)N12	4.0%	7.7%	?
O=C(COC(=O)c1ccc(Br)cc1)NC(=O)NCc1ccccc1	-14.3%	5.6%	-8.5%
Cc1c(C#N)c(NC(=O)CCl)n(Cc2ccc(F)cc2)c1C	1.6%	-4.5%	12.6µM*
COc1ccc(Br)c(C(=O)Nc2cccc(S(=O)(=O)N3CCOCC3)c2)c1	-0.3%	-13.5%	9.9%
COc1ccc(C=NNc2ccc(S(=O)(=O)Nc3ccccc3C(=O)O)cc2[N+](=O)[O-])c(OC)c1	5.3%	0.9%	-14.6%
COCCn1c(SCC(=O)c2c(N)n(C3CC3)c(=O)[nH]c2=O)nnc1-c1cccc(C)c1	0.3%	1.8%	-22.3%
O=C(CCNC(=O)c1ccccc1)NCc1ccccc1F	1.7%[6.58 µM]	-1.6%	56.6%[activator]
CC(C)(C)OC(=O)NCc1ccc(CNC(=O)c2[nH]cnc2C(=O)NC2CCN(C(=O)OC(C)(C)C)CC2)cc1	2.5%	1.1%	?
Cn1nnnc1SCC1=C(C(=O)O)N2C(=O)C(NC(=O)C3CC3c3ccccc3)C2SC1 (stereo not drawn)	3.3%	0.3%	7.8%
CC(C)CN1CCN=C1N(C)C	-4.3%	5.7%	-19.2%
COc1ccc(C(=O)NCc2ccncc2)cc1S(=O)(=O)NCc1ccc(Cl)cc1	-1.4%	3.0%	31.9%[activator]
CC1CCCN(CC(=O)Nc2cc(S(=O)(=O)N3CCOCC3)ccc2N2CCCC2)C1 (stereo not drawn)	-4.7%	-15.2%	-5.9%

An excerpt from above, reduced to SARS PLP yeast and StopGo reporter.
structure | SARS PLP yeast | StopGo reporter
COc1ccc(C(=O)NCc2ccncc2)cc1S(=O)(=O)NCc1ccc(Cl)cc1 | -1.4% | 31.9%[activator]
CC1CCCN(CC(=O)Nc2cc(S(=O)(=O)N3CCOCC3)ccc2N2CCCC2)C1 (stereo not drawn) | -4.7% | -5.9%

(list continues)
SMILES	SARS PLP yeast	RE007 growth inh	StopGo reporter
C/C(CC(=O)Nc1cccc(Cl)c1C)=N\NC(=O)Cc1csc(N)n1	-0.6%	0.9%	-5.7%
COc1ccc(C(=O)OCC(=O)Nc2c(C)n(C)n(-c3ccccc3)c2=O)cc1OC	6.6%	4.2%	-8.8%
CC1CCCCC12NC(=O)N(CC(=O)Nc1sccc1C(N)=O)C2=O (stereo not drawn)	-6.9%	-7.9%	-9.7%
C[C@H](CO)N1C[C@H](C)[C@@H](CN(C)S(=O)(=O)c2cccs2)Oc2c(NC(=O)c3ccncc3)cccc2C1=O	2.0%	-0.9%	-11.8%
CCn1c(O)c(N=NC(=S)NCC2CCCO2)c2ccccc21 (stereo not drawn)	-0.1%	-7.5%	-0.9%
NC(=O)CCCn1c(C(=O)c2ccc(Cl)cc2)c2ccc([N+](=O)[O-])cc2[n+]1[O-]	1.8%	3.4%	-3.2%
Nn1c(SCC(=O)NC2CCCCC2)nnc1-c1ccco1	-0.6%	-6.3%	-4.2%
O=C(C[C@H]1C/C=C\C[C@H](Cc2ccc(F)cc2)C(=O)OC[C@@H]2CCCN2C1=O)N[C@H](CO)Cc1ccccc1	-0.6%	19.2%	-8.9%
O=C(OCC(=O)N1CCCC1)c1ccccc1C(=O)c1ccccc1	-8.2%	-5.6%	48.0%[activator]
O=C(c1cc(-c2ccco2)nc2ccccc12)N1CCN(Cc2ccccc2)CC1	-2.0%	-3.6%	12.6%
CCc1cc(Cn2nc(-c3ccccc3)cc2C(=O)O)on1	-2.7%	-4.8%	-11.4%
CCCSc1ccc([C@H]2N[C@@](C)(C(=O)OC)[C@H]3C(=O)N(C)C(=O)[C@@H]23)cc1OC	0.0%	-10.5%	-5.0%
COc1ccc(CC(=O)Nc2cccc(Cl)c2C)cc1S(=O)(=O)N1CCOCC1	7.6%	12.4%	-2.4%
Cn1cccc1C(=O)OCC(=O)Nc1ccc2[nH]c(=O)[nH]c2c1	1.1%	-3.0%	-13.1%
CC(C)n1nc(C(=O)Nc2ccc3c(c2)OCO3)c2ccccc2c1=O	0.8%	-2.8%	37.7%[activator]
CC(OC(=O)C1CCN(c2ccc(C(F)(F)F)cn2)CC1)C(=O)Nc1cccc([N+](=O)[O-])c1 (stereo not drawn)	-4.7%	-12.4%	?
CN(CC(=O)Nc1ccccc1Br)C(=O)Cn1[nH]c(=O)c2ccccc2c1=O	3.0%	7.2%	-8.2%
O=C(CCCCO)c1ccc(O)c(Cl)c1	4.4%	-3.7%	-2.3%
O=C1c2ccccc2[C@@H]2C[C@@H](O)[C@H](Nc3ccccc3)CCN12	10.9%	4.3%	-14.3%
CC(C)(C)C1CCC(C(=O)Nc2ccc(N3CCOCC3)cc2N2CCOCC2)CC1 (stereo not drawn)	-1.9%	3.8%	-7.4%
COc1ccc(OC[C@@H](O)CNC(=O)c2cccc3c2C(=O)c2ccc(-c4ccc(F)cc4OCc4ccccc4)cc2S3(=O)=O)cc1	1.0%	-0.3%	-18.8%
Cc1ccc(S(=O)(=O)Nc2ccc(NC(=O)c3c(F)c(F)c(F)c(F)c3F)cc2)cc1	-0.4%	-3.6%	-14.2%
CN1CCC(N(C)C(=O)c2ccc(Cl)c(S(=O)(=O)Nc3cc(Cl)ccc3Cl)c2)CC1	-9.2%	-1.8%	49.2%[activator]
CNc1cc(N2CCN(C)CC2)ccc1[N+](=O)[O-]	0.8%	108.3%	-9.1%
CCN(CC(=O)Nc1c(F)cccc1F)C(=O)Cc1ccccc1	-0.8%	-10.5%	0.7%
CN(CC(=O)Nc1ccc(Cl)c(C(F)(F)F)c1)C(=O)Cn1cc([N+](=O)[O-])ccc1=O	-1.5%[6.58 µM]	-17.8%	-18.4%
CCC(C)NC(=O)CSc1nnc(-c2ccc(Cl)cc2)n1N (stereo not drawn)	6.0%	-0.3%	-16.3%
COC(=O)C1=C(c2ccc(F)cc2F)C[C@@H]2CC[C@H]1N2C(=O)NC1CCCCC1	0.1%	-8.6%	0.2%
COc1ccc(/C=C/C(=O)NNC(=O)C(C)Oc2ccccc2F)cc1OC (stereo not drawn)	0.8%	-1.1%	-7.2%
COc1cc(C#Cc2c(-c3cncn3C)n(C)c3ccc(-c4ccc(CN5CCOCC5)cc4)cc23)cc(OC)c1	6.9%	-8.3%	-25.0%
CC(=O)c1ccc(N2CCN(S(=O)(=O)c3ccc4ccccc4c3)CC2)cc1	-14.5%	2.8%	-27.9%
O=C(N/N=C/c1cccs1)c1ccc2nc[nH]c2c1	3.7%	-2.3%	46.1%[activator]
O=C(NCc1cccnc1)c1ccc(COc2ccc(Cl)cc2)cc1	-1.8%	-0.7%	-7.1%
CC12CCC(=O)N1C(C(=O)OCC(=O)Nc1ccc(C(F)(F)F)cc1)CS2 (stereo not drawn)	23.8%	13.5%	-23.4%
O=C1Nc2ccccc2C1(O)c1ccccc1 (stereo not drawn)	-10.4%	44.8%	-15.5%
COc1cccc(/C=C/C(=O)OCC(=O)NC2CC2)c1	2.0%	9.0%	2.5%
CN1CCN(C(=S)c2cn(Cc3ccccc3)c3ccccc23)CC1	-0.8%	-2.8%	25.0%
Cc1c(NC(=O)c2ccco2)cccc1C(=O)NN1C(=O)c2ccccc2C1=O	1.0%	4.7%	28.2%
COc1cc(OC)cc(-c2c(-c3ccc(F)cc3)c3cc(-c4ccc5[nH]ccc5c4)ccc3n2C)c1	1.4%	14.6%	52.3%[activator]
C[C@]12c3[nH]c4ccccc4c3CCN1C(=O)C(CC(=O)NCc1ccco1)C[C@@H]2C(=O)N1CCCCC1 (stereo partly drawn)	1.6%	-17.2%	-18.2%
C=C1c2cccc(C(F)(F)F)c2O[C@H](C(=O)OCC)[C@H]1OC	-16.9%	-12.5%	-22.3%
O=C1CN(C(=O)COc2ccc([N+](=O)[O-])cc2Cl)c2ccccc2N1	-2.6%	5.7%	27.8%
Cc1cc(C)cc(C(=O)NC2C(=O)N3C(C(=O)O)=C(CSc4nnc(C)s4)CSC23)c1 (stereo not drawn)	1.7%	3.4%	-4.7%
CC(C)(C)c1ccc(/C=C/C(=O)O)s1	-1.7%	6.2%	-10.9%
CC(C)(C)OC(=O)C[C@H]1C/C=C\C[C@@H](CC(=O)NCCO)C(=O)N2CCC[C@H]2COC1=O	-1.0%	1.9%	-8.7%
C[C@@]12C(=O)N(CC3CCCO3)CC(=O)N1[C@H]1c3ccccc3OC[C@@H]1[C@@H]2c1ccccc1 (stereo partly drawn)	0.5%	5.2%	-7.1%
CC1(C)CC(=O)C=C(c2ccc(OC(F)(F)F)cc2)C1	7.7%	0.1%	0.0%
CN(C)C(=O)c1ccc(NC(=O)CSc2nnc(-c3cccs3)n2N)cc1	9.1%	-6.6%	-3.0%
CC(C)(C)OC(=O)NCCCCCNC(=O)c1ncn(Cc2ccccc2)c1C(=O)NCCCCCNC(=O)OC(C)(C)C	7.6%	-7.2%	0.0%
O=C(/C=C/c1ccccc1Cl)NNC(=O)c1ccncc1	-1.0%	1.3%	-12.4%
COc1ccc(NC(=S)Nc2ccc3cn[nH]c3c2)cc1	-2.3%	-8.7%	3.4%
Cc1ccc(C)c(OCCC(=O)Nc2cccc(S(=O)(=O)NC3=NCCCCC3)c2)c1	3.2%	1.1%	-20.0%
O=c1[nH][nH]cc1C=Nc1ccc(Cl)cc1Cl	-1.5%	9.4%	-8.5%
CCc1ccc(C(=O)CN2C(=O)NC3(CCOc4ccccc43)C2=O)s1 (stereo not drawn)	-0.4%	-9.9%	-12.2%
O=C(/C(Cl)=C/Nc1ccc(Br)cn1)C(F)(F)F	-0.3%	-21.9%	-7.2%
CC(C)Cn1c(N)c(C(=O)COC(=O)CCc2nc3ccccc3c(=O)[nH]2)c(=O)n(C)c1=O	1.8%	8.3%	-7.7%
COc1cc(OC)cc(C(=O)NCC(=O)OCC(=O)NC(C)CCc2ccccc2)c1 (stereo not drawn)	2.8%	-5.1%	-16.0%

These rows are one share of the data; count on the stated rates, not on these rows.
